Bioassay records deposited in PubChem BioAssay by several laboratories.
Rce1 inhib: yeast Rce1p protease inhibitors, primary screen, biochemical, fluorescence, cell-free homogeneous; CAAX prenyl protease 2 (Saccharomyces cerevisiae (strain ATCC 204508 / S288c)), Q03530; yeast membranes, quenched prenylated peptide cleavage fluorescence; calls only; 290,000 tested, 0.27% active; AID 2563, 2010;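 active = fall in fluorescence gain of 50% or more versus controls, with final raw signal at or below 3038400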;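 note: plate controls were neutral control wells for no effect and wells lacking membranes for full effect; tested at 10 µM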
Target sequence (Q03530 whole entry, looked up): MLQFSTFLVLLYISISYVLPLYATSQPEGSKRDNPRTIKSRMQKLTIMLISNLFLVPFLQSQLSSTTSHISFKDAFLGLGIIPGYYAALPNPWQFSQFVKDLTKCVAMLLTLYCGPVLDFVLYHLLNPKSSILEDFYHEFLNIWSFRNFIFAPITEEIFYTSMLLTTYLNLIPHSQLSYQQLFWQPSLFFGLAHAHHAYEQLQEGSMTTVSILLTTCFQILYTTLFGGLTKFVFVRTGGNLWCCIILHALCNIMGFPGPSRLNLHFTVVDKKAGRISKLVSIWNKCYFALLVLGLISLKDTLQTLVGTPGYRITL
Yeast UUG start: modulators of yeast start codon fidelity, primary screen, whole organism, S. cerevisiae, single point, plate reader. S. cerevisiae UUG-firefly luciferase reporter, luminescence/redox ratio. activity score, % at 18.7 µM. 350,000 tested, 0.13% active;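 active = replicate mean at a twofold rise or more, about +100% in these data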;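 note: firefly luciferase made from a UUG start codon reports start codon fidelity; reporter light over untreated wells divided by growth signal over untreated wells; some hits fall short of that in this replicate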
PABP polyA inh: PABP poly(A) RNA binding inhibitors, primary screen, biochemical, fluorescence polarization, uHTS; Polyadenylate-binding protein 1 (Homo sapiens), P11940; inhibition, % at 35 µM; 290,000 tested, 1% active; AID 2014, 2009;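 active = 50% or more with normal probe brightness, or confirmed in later tests; about a fifth of its hits are not listed in these tables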;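 note: calls also rest on retests at 20 µM and on dose response follow-up; controls were probe without protein and protein plus probe with vehicle; some compounds called inactive have numbers as strong as hits; many hits fall short of the cut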
Target sequence (P11940 whole entry, looked up): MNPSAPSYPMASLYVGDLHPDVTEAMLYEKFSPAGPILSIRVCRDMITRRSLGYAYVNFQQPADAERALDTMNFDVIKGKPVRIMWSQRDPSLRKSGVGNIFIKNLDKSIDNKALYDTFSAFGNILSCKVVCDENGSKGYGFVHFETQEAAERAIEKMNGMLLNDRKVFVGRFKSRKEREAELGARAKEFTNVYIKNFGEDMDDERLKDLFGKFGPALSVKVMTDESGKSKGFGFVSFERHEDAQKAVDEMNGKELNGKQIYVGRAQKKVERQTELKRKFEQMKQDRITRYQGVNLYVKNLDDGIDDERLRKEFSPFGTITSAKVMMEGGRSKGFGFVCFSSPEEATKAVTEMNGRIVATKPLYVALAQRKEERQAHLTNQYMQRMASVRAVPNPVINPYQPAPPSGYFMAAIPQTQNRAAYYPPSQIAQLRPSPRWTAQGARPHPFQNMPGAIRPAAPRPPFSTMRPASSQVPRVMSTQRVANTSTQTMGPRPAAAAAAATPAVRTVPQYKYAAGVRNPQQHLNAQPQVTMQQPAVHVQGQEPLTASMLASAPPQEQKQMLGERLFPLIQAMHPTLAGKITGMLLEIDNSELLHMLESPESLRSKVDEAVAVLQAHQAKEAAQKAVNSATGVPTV
eIF4H inh: human eIF4H binding inhibitors, primary screen, translation initiation inhibitor project, biochemical, uHTS, fluorescence polarization; Eukaryotic translation initiation factor 4H (Homo sapiens), Q15056; eIF4H fluorescence polarization binding assay; inhibition, % at 35 µM; 290,000 tested, 0.94% active; AID 2012, 2009;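 active = 50% or more with normal probe brightness, or confirmed in later tests; about a fifth of its hits are not listed in these tables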;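 note: calls also rest on retests at 20 µM and on dose response follow-up; 0% = protein and probe with vehicle and 100% = probe without protein; strong numbers were not always called active; many hits fall short of the cut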
HIV Env fusion: inhibitors of HIV-1 Env-driven cell-cell fusion, primary screen, HeLa-JRFL effector, CEM21 target cells, luciferase; inhibition, % at 12.3 µM; 360,000 tested, 1.1% active; AID 651610, 2012;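 active = mean replicate inhibition score of at least 50 and every replicate individually at or above 50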;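 note: 0% = plate neutral controls and 100% = maraviroc near 300 nM; one replicate is shown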
MT1-MMP act inh: blockers of MT1-MMP proenzyme processing, primary screen, HT1080 RFP-PRO-GFP cells, GFP/RFP fluorescence; 360,000 tested, 0.061% active; GFP/RFP ratio fluorescence, overnight; percent of plate control window, DMSO zero; Matrix metalloproteinase-14 (Homo sapiens), P50281; GFP/RFP ratio change, % at 20 µM;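 active = GFP/RFP ratio change of at least 30% with cell ATP level not reduced by more than half and red fluorescence within 50% of control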; note: strong numbers were not always called active
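Test system: HT1080 cells expressing an RFP-PRO-GFP fluorescent reporter construct / Compound dosing: single-point 20 µM compound, 1% DMSO / Schedule: cells overnight before dosing, compound overnight, 37 °C, 5% CO2 / Evaluation: GFP/RFP fluorescence ratio / Control set: DMSO and RFP-L50D-GFP cell wells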
CSC inhib: cancer stem cell viability inhibitors, primary screen, luminescence; cancer stem cell-like cells viability; inhibition, % at 7.5 µM; 300,000 tested, 1.1% active;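 active = mean at 75% or more and at least half the replicates too; tested in HMLE shEcad cells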;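 note: 0% = median of negative and 100% = median of positive control wells; the first replicate is given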
MT1-MMP act inh RFP: recorded beside MT1-MMP act inh, whose call it bears; RFP signal change, %; measured here: RFP expression control read;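 0 = vehicle wells; hits needed this value within 50% of zero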
Numbers without * were called inactive; i = inactive; nt = no result given; & = joins results of further samples.

The opening 3 entries, to show the layout:
SMILES	Rce1 inhib	Yeast UUG start	PABP polyA inh	eIF4H inh	HIV Env fusion	MT1-MMP act inh	MT1-MMP act inh RFP	CSC inhib
CC(C)CNC(=O)C1Nc2ccc(OC(F)(F)F)cc2C2C=CCC12 (stereo unspecified)	i	-0.4	nt	nt	-3.2	-1.3	-9.8	-26.0
CC(C)NCC(O)c1ccc2ccccc2c1 (stereo unspecified)	nt	-16.1	nt	nt	-1.5	1.1	3.7	-15.2
Nc1nc(NCc2ccco2)nc(NC2CCCCC2)c1[N+](=O)[O-]	i	-2.6	-7.9	5.9	6.9	1.9	-2.2	-7.8

Results, previewed entries included:
SMILES	Rce1 inhib	Yeast UUG start	PABP polyA inh	eIF4H inh	HIV Env fusion	MT1-MMP act inh	MT1-MMP act inh RFP	CSC inhib
CC(C)CNC(=O)C1Nc2ccc(OC(F)(F)F)cc2C2C=CCC12 (stereo unspecified)	i	-0.4	nt	nt	-3.2	-1.3	-9.8	-26.0
CC(C)NCC(O)c1ccc2ccccc2c1 (stereo unspecified)	nt	-16.1	nt	nt	-1.5	1.1	3.7	-15.2
Nc1nc(NCc2ccco2)nc(NC2CCCCC2)c1[N+](=O)[O-]	i	-2.6	-7.9	5.9	6.9	1.9	-2.2	-7.8
CCCNC(=O)/C=C/c1ccc(C(C)C)cc1	i	4.7	-1.2	5.1	-19.4	-1.0	5.0	8.5
S=C1N(c2ccccc2)CN(C2CCCCC2)CN1c1ccccc1	i	-25.1	4.6	-15.0	-2.5	1.2	-1.2	-12.1
CC(=O)N1c2ccc(S(=O)(=O)N3CCCC3)cc2CC1C(=O)NCc1ccc(N(C)C)cc1 (stereo unspecified)	i	-5.1	6.7	-17.7	-0.9	2.0	-0.3	8.6
CCN(Cc1nc2ccccc2c(=O)[nH]1)Cc1nc2ccsc2c(=O)[nH]1	i	-17.4	48.4	13.1	-12.7	-1.0	-3.3	-11.7
CNC(=S)N1CCC(Cc2ccccc2)CC1	i	-14.8	6.1	-3.3	-2.8	-0.5	1.4	-5.8
CC(C)(C)Cc1nnc(NS(=O)(=O)c2ccc([N+](=O)[O-])cc2)s1	nt	2.0	-0.9	-5.8	11.4	-1.3	-3.7	-0.9
CCOc1ccc(Nc2nc3ccccc3n3cnnc23)cc1	i	nt	-1.4	-15.2	12.1	6.6	2.9	nt
Cc1ccc(S(=O)(=O)N(CC(=O)NCc2ccco2)Cc2ccc(F)cc2)cc1	i	5.1	3.2	3.9	nt	0.3	-3.0	-0.1
CC(C)CC(=O)N/C(N)=N/c1nc2ccccc2s1	i	nt	6.1	-3.8	nt	2.7	-14.0	-7.0
O=C1N(c2ccccc2)c2ccccc2C1(O)C(F)(F)F (stereo unspecified)	i	-13.1	13.5	-7.8	12.0	-0.1	1.8	-7.1
COCCN(C(=O)CC1CCCCC1)c1c(N)n(CC(C)C)c(=O)[nH]c1=O	nt	3.6	nt	nt	nt	5.0	3.5	-13.0
COc1ccc(C(=O)/C(C#N)=N/Nc2ccccc2[N+](=O)[O-])cc1	i	nt	-1.5	8.0	27.6	0.5	-22.8	-2.8
O=C(c1n[nH]c(=O)c2ccccc12)N1CCOCC1	nt	nt	-7.1	-5.3	nt	0.7	1.9	-6.4
O=C(NCc1ccccn1)c1cc(Cl)ccc1OCc1ccccc1	i	-28.4	4.0	-0.9	14.7	-2.4	-7.7	34.0
O=C(Nc1cccnc1)C1(c2ccc(Cl)cc2)CCCC1	i	-17.9	0.3	3.0	-19.3	-3.7	-2.1	-0.8
CCCOc1ccc2c(=O)c(-c3cc(C(=O)OC)oc3C)c(C)oc2c1	i	-24.3	-10.8	-4.1	23.2	-6.1	-4.0	21.9
C[C@@H]1O[C@@H](O[C@H]2[C@H](O)[C@@H](O)[C@H](Oc3c(-c4ccc(O)c(O)c4)oc4cc(O)cc(O)c4c3=O)O[C@@H]2CO)[C@H](O)[C@H](O)[C@H]1O	nt	-12.6	nt	nt	-11.5	0.5	5.6	0.1
COc1ccc(Cl)c(CNC[C@H]2O[C@@H](n3cnc(C(N)=O)n3)[C@H](O)[C@@H]2O)c1	nt	-3.4	nt	nt	-17.6	-1.9	-0.9	nt
CC(=O)N1c2ccccc2C(C)=CC1(C)C	i	-5.1	-8.5	-10.1	-9.1	-0.8	3.6	-2.8
O=C(Cc1ccc(Cl)cc1)N/N=C/c1cccs1	i	-8.1	-8.2	0.7	-3.8	-0.8	5.2	20.9
COc1ccc(NC(=O)COC(=O)c2ccc(S(=O)(=O)N(C)c3ccccc3OC)cc2)cc1OC	i	nt	-6.7	2.4	5.0	-9.9	-5.4	-5.6
CSc1ccccc1NC(=O)CN(C)C(=O)Cc1c(F)cccc1Cl	i	-8.2	2.5	-0.8	0.4	-2.0	1.4	5.6
N#CC(Cc1cccc(CC(C#N)(c2ccccc2)c2ccccc2)c1)(c1ccccc1)c1ccccc1	i	-26.9	5.7	-3.8	56.5*	-1.0	-12.3	20.5
CCC(C)c1ccc(OCC(=O)Nc2ccc3c(c2)C(=O)NC3=O)cc1 (stereo unspecified)	i	-10.8	4.8	5.2	-3.0	-6.5	0.1	2.1
COc1ccc(CCNC(=O)CC2C(=O)NCCN2CC(C)(C)C)cc1 (stereo unspecified)	i	-19.9	11.9	5.2	0.6	0.7	6.0	1.0
N#Cc1cc2c(nc1SCC(N)=O)CCCCC2	i	-1.6	-2.7	3.0	nt	0.0	2.2	-2.8
CN(C(=O)COC(=O)c1n[nH]c(=O)c2ccccc12)c1ccccc1	nt	-0.8	nt	nt	nt	1.2	0.2	-1.0
CCCN(CCC)c1nc(-c2ccccn2)nc2ccccc12	i	-37.9	-10.4	-5.4	71.3*	-3.1	-17.8	34.4
CCCCCCc1nc(C(N)=O)c2[nH]c(=O)n(-c3ccc(OCC)cc3)c2n1	i	3.9	3.9	0.1	nt	0.2	-1.5	-23.1
Cc1ccc(CNC(=O)CCS(=O)(=O)c2ccc(Br)s2)cc1	i	-11.1	3.1	3.1	-9.1	-2.0	3.5	-13.7
COc1ccc(NS(=O)(=O)c2cccc(-c3n[nH]c(=S)n3Cc3ccccc3)c2)cc1	i	nt	-7.9	-1.5	10.5	2.1	-5.8	4.6
COc1ccc(NC(=O)Cc2c(O)c3ccccc3[nH]c2=O)cc1	i	nt	-8.3	2.1	nt	5.6	7.5	-30.8
Cc1ccc(-n2ncc3c(SCc4cccc(C)c4)ncnc32)cc1	i	nt	-11.5	-4.0	-109.2	2.7	0.9	-0.3
CS(=O)(=O)c1ccc(C(=O)NC2CCOC2=O)cc1 (stereo unspecified)	i	3.3	3.7	-3.4	-77.8	0.9	7.9	-1.4
O=C(CCN1C(=O)[C@@H]2Cc3ccccc3CN2C1=O)Nc1cccc(F)c1	i	nt	2.7	1.4	-10.3	-1.3	1.9	-14.3
CC(C)N(Cc1ccccc1)C(=S)Nc1ccccc1F	i	-14.6	-2.1	-5.0	2.1	2.5	-0.5	-2.5
CNC[C@@H]1Oc2c(NC(=O)Nc3ccccc3)cccc2C(=O)N([C@@H](C)CO)C[C@H]1C	nt	0.9&-8.6	nt	nt	-15.9	4.1	-0.7	-16.4
O=C(CSc1ccc([N+](=O)[O-])cn1)Nc1nccs1	i	-13.8	-0.7	-14.4	2.5	0.8	5.2	1.0
CCN(CC)C(=O)c1ccc(-c2ccccc2)cc1	i	nt	10.3	1.5	nt	0.1	2.0	1.9
COc1ccccc1C(=O)C1CCCN(C(=O)c2ccc(Cl)cc2)C1 (stereo unspecified)	nt	-6.8	nt	nt	-3.4	2.3	-3.0	nt
O=S(=O)(c1ccccc1)c1nc(NCc2cccnc2)sc1Cl	i	nt	-5.3	-1.1	-26.2	1.5	-8.1	12.9
Cc1ccc(-n2c(Cc3cccn3C)nnc2SCC(=O)Nc2cc(C)on2)cc1	i	-11.4	0.0	-3.5	-94.1	-1.8	-2.5	10.7
COc1ccc(OC)c(NC(=S)NCCCN2CCOCC2)c1	i	-7.4	-1.5	-10.3	-7.4	1.0	5.2	1.6
O=C(OCC(=O)N1CCOCC1)c1ccccc1Br	i	-7.8	0.9	-3.3	-22.2	1.7	0.7	-3.1
O=C(COc1cccc2cccnc12)N/N=C1\SCC(=O)N1Cc1ccccc1	i	-0.5	-9.0	5.6	nt	3.9	-3.9	-3.6
CN(C)c1cc[n+](CC(=O)Nc2ccc(OC(F)F)cc2)cc1	i	-12.8	36.6	-2.1	-4.2	-1.4	-7.8	-0.3
Cc1ccc2oc(C(=O)N3CCC(O)(c4cccc(C(F)(F)F)c4)CC3)c(C)c2c1	i	1.6	4.6	-13.2	-8.5	-1.5	2.2	44.2
O=C(N/C(=C/c1cccnc1)C(=O)N1CCOCC1)c1ccco1	i	nt	1.0	-4.7	-11.2	0.3	4.2	-14.5
CCC(OC(=O)C(C)N1C(=O)C(=O)c2ccccc21)C(=O)Nc1ccccc1OC (stereo unspecified)	i	9.7	7.5	-12.2	-8.6	2.7	8.3	nt
Cc1c(-n2c(-c3ccccc3)nc3ccccc3c2=O)c(=O)n(-c2ccccc2)n1C	i	nt	-2.3	9.4	-9.2	3.7	4.2	1.2
CC(=O)C(C(C)=O)c1cc(NS(=O)(=O)c2ccccc2)ccc1NS(=O)(=O)c1ccccc1	i	-18.0	0.1	-4.2	0.9	-3.8	-0.5	nt
Cc1cc(C)n2nc(C(=O)N3CCN(Cc4ccc5c(c4)OCO5)CC3)nc2n1	i	nt	-3.3	7.7	-2.0	-2.8	-1.2	-18.6
CC1(C)CC(=O)c2cc(OCC(=O)N3CCCCCC3)ccc2O1	i	-9.1	5.7	8.0	-33.8	0.0	-0.8	-5.3
CC(=N\Nc1ccccc1)/C(=N/O)C(=O)Nc1ccccc1	i	-17.4	3.8	1.1	nt	5.8	6.6	-9.9
COc1cccc(NC(=S)N(Cc2ccc(C)cc2)Cc2ccccn2)c1	i	nt	-9.4	1.0	13.2	-1.8	-5.3	-10.8
Oc1cccc(C(O)CNCc2ccc(-c3ccccc3)cc2)c1 (stereo unspecified)	i	-0.6	1.9	0.7	-37.1	1.9	0.5	45.4
O=C(NCC1CCCCC1)C12CN(Cc3ccccc3)CC1C(c1cccc([N+](=O)[O-])c1)=NO2 (stereo unspecified)	i	-9.5	4.5	-1.3	17.8	-0.2	-5.5	-38.2

Additional results follow:
SMILES	Rce1 inhib	Yeast UUG start	PABP polyA inh	eIF4H inh	HIV Env fusion	MT1-MMP act inh	MT1-MMP act inh RFP	CSC inhib
COc1ccc(C(C)=O)cc1COC(=O)c1c(C)noc1C	i	-0.3	2.8	-6.3	-68.9	1.3	3.1	18.0
Cc1cc(C)cc(CC2CC(=O)N(c3ccc([N+](=O)[O-])cc3)C2=O)c1 (stereo unspecified)	i	-2.0	-2.9	-0.5	12.0	5.4	-1.2	-17.4
CC(=O)Nc1cc2cc(NS(=O)(=O)c3ccc(C)cc3)ccc2oc1=O	i	-8.9	6.3	1.0	-1.4	2.5	1.6	3.5
CCn1c(=O)c(=O)[nH]c2cc(C(=O)N3CCN(Cc4ccc5c(c4)OCO5)CC3)ccc21	i	-20.7	-8.2	-4.6	-7.0	1.9	3.6	-4.6
CC1CCN(C(=O)COC(=O)/C=C/c2ccc([N+](=O)[O-])cc2)CC1	nt	-1.4	nt	nt	-3.6	0.9	-1.1	-10.8
C/C(N)=C(/C#N)C(=O)CSc1nnc(Nc2cccc(C)c2)s1	i	-17.9	-3.8	6.6	-37.4	4.5&-0.4	-0.6&-1.8	-1.4
COc1cccc(CNc2nc(SC)ncc2CO)c1	i	nt	7.0	-6.5	nt	0.6	-0.4	-22.7

A portion of the library, so the mix of outcomes need not match the whole.
